PINK1 expr mod: modulators of PINK1 expression; PINK1 immunofluorescence, high-content cytometry, 24 h; Potency, µM (top dose mostly 76.6 µM), without a hit: at the top dose activation (PINK1 increase), most hits filed as activators; actives 0.2% (n = 410,000); active = well fitted activation curve with a large enough effect; inconclusive = small, poorly fitted or top-dose-only effect; inactive = flat fitted curve, though single readings scatter; cell line not stated here;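 further: potency means the concentration at half of the fitted maximal effect; % of control where 0% means no effect; nearly all actives have a fitted effect of over 65% in size; a mitochondrial uncoupler was the plate control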
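Fluorescence from anti-PINK1 antibody, together with nuclear and cell stains, was scanned on a laser-scanning cytometer. Before staining, stable-line cells were incubated 24 hours with compounds at 5 concentrations; primary antibody 12 h at 10 degrees C.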
Menin MLL FP FL: menin-MLL binding inhibition, fluorescein peptide | Fluorescence polarization, fluorescein-MLL peptide displacement from menin | FP activity change, % at 61.4 µM | 290,000 tested, under 10 active | AID 1766; inconclusive = falling polarisation curve, or a change in total fluorescence; inactive = total fluorescence flat and polarisation flat or rising; no compound was filed as active; the % refers to the polarisation; negative = inhibition;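 further: % of control where 0% means no effect; inhibitors lower the polarisation; unlabelled MLL peptide was the positive control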
TRPV1 potentiator: human TRPV1 potentiation. TRPV1-expressing cells, Fluo-8 calcium influx, capsaicin EC20 potentiation; host cell line not named in the record; control for the full effect not named in the record. potentiation, % at 8.33 µM. actives 0.02% (n = 320,000). AID 540277; active means potentiation above 80%; inconclusive means 30% to 80%; inactive means below 30%; further: 0% is about no effect
Target sequence (Q8NER1 whole entry, looked up): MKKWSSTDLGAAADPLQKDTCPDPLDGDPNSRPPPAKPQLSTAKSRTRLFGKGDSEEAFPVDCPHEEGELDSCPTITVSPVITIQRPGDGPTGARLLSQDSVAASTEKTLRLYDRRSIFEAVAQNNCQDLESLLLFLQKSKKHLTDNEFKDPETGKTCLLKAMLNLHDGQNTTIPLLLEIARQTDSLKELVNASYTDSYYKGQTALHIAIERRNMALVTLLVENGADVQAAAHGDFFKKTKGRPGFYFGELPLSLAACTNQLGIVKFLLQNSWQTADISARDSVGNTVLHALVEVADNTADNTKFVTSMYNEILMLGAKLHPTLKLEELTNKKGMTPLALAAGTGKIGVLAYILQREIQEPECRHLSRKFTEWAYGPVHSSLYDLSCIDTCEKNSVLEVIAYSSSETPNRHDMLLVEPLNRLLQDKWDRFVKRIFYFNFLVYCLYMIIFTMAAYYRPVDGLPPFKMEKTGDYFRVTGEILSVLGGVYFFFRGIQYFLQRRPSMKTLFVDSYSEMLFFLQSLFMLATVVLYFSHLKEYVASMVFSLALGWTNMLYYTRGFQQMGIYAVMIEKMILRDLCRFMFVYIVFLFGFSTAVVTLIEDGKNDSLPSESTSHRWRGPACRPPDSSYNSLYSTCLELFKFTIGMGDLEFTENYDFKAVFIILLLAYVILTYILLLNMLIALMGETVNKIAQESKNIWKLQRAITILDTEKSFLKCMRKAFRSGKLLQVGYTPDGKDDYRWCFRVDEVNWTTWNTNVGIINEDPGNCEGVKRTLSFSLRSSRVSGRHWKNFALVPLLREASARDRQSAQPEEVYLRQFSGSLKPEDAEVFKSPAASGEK
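Cells expressing TRPV1 were dye-loaded with Fluo-8 and read kinetically: 10 s baseline, 3 min after compound (agonist portion), then 2 min after EC20 capsaicin (allosteric enhancer portion). Calcium-bound dye fluorescence at 480/520 nm.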
ClpP mod: qHTS Assay for Activators of ClpP. purified B. subtilis ClpP, FRET peptide cleavage, 20 min. Potency, µM (series often up to 57.5 µM), for inactives: at the highest dose activity change, negative = active. actives 1.9% (n = 340,000); active = well fitted falling curve with a large enough effect; inconclusive = small, poorly fitted or top-dose-only effect; inactive = no such curve, though single readings can be large or run the other way; further: potency means the concentration at half of the fitted maximal effect; the source files actives as falling curves though it sought activators and does not explain the sign; nearly all actives have a fitted effect of over 65% in size; many hits overshoot -100%
Target sequence (P80244 whole entry, looked up): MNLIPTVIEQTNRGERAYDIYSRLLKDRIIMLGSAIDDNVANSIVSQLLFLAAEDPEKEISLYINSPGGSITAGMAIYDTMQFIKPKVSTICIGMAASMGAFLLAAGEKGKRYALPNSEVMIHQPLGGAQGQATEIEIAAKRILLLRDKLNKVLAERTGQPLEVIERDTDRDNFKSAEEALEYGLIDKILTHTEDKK
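ClpP 10 microg/mL final, pH 8 Tris/KCl buffer with BSA, glycerol, Tween-20; compound pinned in; FRET-FV substrate; RT 20 min; Ex320/Em430; ΔFRET vs ADEP 5.8 microM, DMSO, no enzyme.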
TRPML1 blocker: blocks the human TRPML1 channel | actives 0.02% (n = 390,000) | TRPML1-inducible cells, Ca2+ dye fluorescence, FDSS; active compounds read low; inhibition of EC80 agonist-evoked calcium signal | activity change, negative = inhibition, % (test concentration not listed) | Q9GZU1; in the data active means activity change below about -50%; inconclusive means about -30% to -50%; inactive means above about -30%;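 further: stimulus is agonist 54-4 at its EC80 concentration; on the % scale 0 is the no-effect control and ±100 the full control effect; compound concentration not given in the record; the text of the record puts the active cut at -80%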
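Calcium fluorescence in TRPML1-DL cells induced overnight with Tet: a 110 s read after compound pin addition, then a 110 s antagonist read after challenge with 54-4 at 4 uM final (EC80).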
TRPML1 agonist: agonists of human TRPML1 channel. Q9GZU1. actives 0.12% (n = 410,000). AID 624414. activation, % (concentration not given with the values). TRPML1-expressing cells, Ca2+ dye fluorescence, FDSS; host cell line not named in the record; reference of the full effect not given here; in the data active = activation above about 50%; inconclusive = about 30% to 50%; inactive = below about 30%; further: 0% is about no effect; the text of the record puts the active cut at 80%
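Tet-induced TRPML1-DL cells, 1,500 per well, cultured overnight, were loaded with a no-wash Ca2+ dye for 45–90 min. Calcium fluorescence was recorded on the FDSS for 110 s after compound addition, before the EC80 agonist (4 uM 54-4) was added.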
Sfp inh: blocks B. subtilis Sfp PPTase activity | Biochemical Sfp PPTase activity, qHTS | Q9F4F7 | Potency, µM, for the others: max response, negative = inhibition, actives largely listed as inhibitors | actives 3.5% (n = 310,000); active means well fitted inhibition curve with a large enough effect; inconclusive means small, poorly fitted or top-dose-only effect, or another doubt; inactive means no such curve, though single readings can be large or run the other way;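 further: the enzyme is Sfp with the accession as filed and its product quenches rhodamine fluorescence; potency means the concentration at half of the fitted maximal effect; 0% = enzyme reaction without inhibitor and -100% = no enzyme wells; top concentration of the series not given in the record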
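Compounds were incubated with enzyme (final 15 nM) for 15 min at room temperature before substrate addition started the reaction. Fluorescence at 525 nm excitation, 598 nm emission was recorded immediately and after 30 minutes.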
* hit, by the source's call; ? = inconclusive; . = not tested or not shown; [ ] = remark or other dose.

smiles,PINK1 expr mod,Menin MLL FP FL,TRPV1 potentiator,ClpP mod,TRPML1 blocker,TRPML1 agonist,Sfp inh
COc1ccc(-c2csc(NC(=O)c3cccs3)c2C(=O)O)cc1OC,1.3%,3.9,-4,0.5%,-3,-1.0,-8%
Cc1ccc(NC(=O)Nc2cccs2)c(C)c1,1.8%,.,.,-3.0%,-1,0.8,.
CCOC(=O)c1cc(-c2ccc(F)cc2)n(CCC(=O)NCc2ccc(C)cc2)c1C,-0.9%,.,.,0.9%,19,1.8,.
O=C(c1ccc(Cl)cc1)c1ccc(CN2C(=O)c3ccccc3C2=O)o1,0.5%,8.4,9,0.8%,21,4.0,9%
Fc1ccccc1N1CCN(c2nccn3nc(-c4ccc(Br)cc4)cc23)CC1,2.9%,.,.,-2.6%,-5,-0.8,.
Cc1ccccc1C(=O)c1cccn1CC(=O)NCCCc1ccccc1,-0.1%,0.4,5,-2.5%,4,-0.8,0%
CCOC(=O)c1ccc(NC(=O)CC2OCCN(CC)C2=O)cc1 (centres undefined),-0.6%,7.7,-6,-0.3%,-4,-0.8,-7%
CSc1nc(SCC(N)=O)c2c3c(sc2n1)CN(C)CC3,-3.0%,1.8,-21,?,2,-0.1,7%
CC(=O)c1ccc(OCc2cc(C(=O)NC3CCCCC3)no2)cc1,-1.3%,.,14,-2.1%,0,1.4,10%
CC1=C(C(=O)Nc2ccccn2)C(c2ccc(Cl)cc2Cl)NC(=S)N1 (centres undefined),1.1%,3.5,-9,.,3,-0.6,25%
CCOc1cc(C2C(C(=O)OC)=C(C)NC3=C2C(=O)c2ccccc23)c(Br)cc1O (centres undefined),0.4%,.,.,1.4%,-2,-1.0,.
O=C(NCc1ccncc1)c1cncc(Br)c1,1.1%,-1.2,-20,-1.9%,4,0.9,16%
O=C1CSC(c2cccnc2)N1c1ccc(F)cc1 (centres undefined),1.2%[38.3 µM],3.6,1,-2.2%,13,0.1,16%
Cc1ccc(OCCCn2ccnc2)c(Br)c1,-1.7%,-4.8,11,-2.5%,-6,-1.0,0%
Cc1cc(S(=O)(=O)Nc2ccc(O)c(Sc3nc4ccccc4s3)c2)ccc1Cl,-1.4%,.,.,1.2%,7,3.4,.
COc1cc(C2C(C(=O)Nc3ccc(C)cc3C)=C(C)Nc3nc(SCc4ccccc4)nn32)cc(OC)c1OC (centres undefined),0.4%,.,.,-1.9%,-21,1.9,.
COc1ccc(C)cc1NC(=O)c1nnn(Cc2cccc(C(F)(F)F)c2)c1N,30%,2.0,7,.,4,-0.2,21%
CCOC(=O)Cn1cnc2c(sc3nc(C)cc(C)c32)c1=O,2.8%,8.0,-8,-2.4%,11,-0.9,11%
CCOC1=C2[C@@H](CN(S(=O)(=O)c3ccc(C)cc3)[C@H]2c2cccc3ccccc23)[C@H]2C(=O)N(c3ccccc3)C(=O)[C@H]2C1,0.0%,.,.,-4.6%,.,0.1,.
Cc1ccc(S(=O)(=O)NC(=NC(C)C)c2ccccc2)cc1,1.0%,-3.6,4,0.6%,13,0.0,3%
O=[N+]([O-])c1cccc(S(=O)(=O)Nc2ccc(-c3ccc(N4CCOCC4)nn3)cc2)c1,3.8%,.,12,.,-9,-0.9,.
O=C(Cc1cccc2ccccc12)Nc1ccccc1Br,4.3%,-4.5,1,3.2%,17,2.4,9%
CC1C/C(=N/N2C(=O)CSC2=S)CC(C)(C)C1 (centres undefined),0.9%,13,2,0.3%,-2,-0.6,-15%
CCCc1cc(C(=O)Nc2ccc(C(=O)c3ccccc3)cc2)n(C)n1,1.2%,.,6,0.4%,13,2.5,-1%
O=C(c1ccc(NS(=O)(=O)c2cccc3cccnc23)cc1)N1CCCCC1,2.8%,-2.8,-5,0.5%,11,-0.4,10%

Rewritten with each value named: part of the list above
O=C(Cc1cccc2ccccc12)Nc1ccccc1Br
  PINK1 expr mod: 4.3%	Menin MLL FP FL: -4.5	TRPV1 potentiator: 1	ClpP mod: 3.2%	TRPML1 blocker: 17	TRPML1 agonist: 2.4	Sfp inh: 9%
CC1C/C(=N/N2C(=O)CSC2=S)CC(C)(C)C1 (centres undefined)
  PINK1 expr mod: 0.9%	Menin MLL FP FL: 13	TRPV1 potentiator: 2	ClpP mod: 0.3%	TRPML1 blocker: -2	TRPML1 agonist: -0.6	Sfp inh: -15%

Carrying on.
smiles,PINK1 expr mod,Menin MLL FP FL,TRPV1 potentiator,ClpP mod,TRPML1 blocker,TRPML1 agonist,Sfp inh
Nc1nc(SCC(=O)NC2CCCCC2)n[nH]1,-1.0%,.,3,-1.1%,20,0.2,-3%
Cc1ccc(-c2noc(-c3nnn(CC(=O)Nc4cccc(C(F)(F)F)c4)c3N)n2)cc1,-0.5%,.,.,-3.7%,-7,-0.4,.
Cc1ccc(/C=C2/SC(=S)N(CCCC(=O)Nc3cc([N+](=O)[O-])ccc3O)C2=O)cc1,8.2%,.,3,-0.8%,10,0.6,0%
Cc1cccc(C(=O)NNC(=O)C2CCCCC2)c1O,0.5%,.,.,?,-9,-0.7,.
CCc1sc(NC(=O)CN2CCC(C(N)=O)CC2)nc1-c1ccccc1,2.2%,-1.6,-11,1.9%,25,0.6,2%
Cc1cccc2cc(C#N)c(NCCCn3ccnc3)nc12,0.0%,2.5,3,-25%,13,-0.4,5%
NNC(=O)CNC(c1ccccc1)c1cc(Br)ccc1N (centres undefined),1.0%,0.4,18,.,17,0.6,17%
COc1ccc(S(=O)(=O)O/N=C2\CCCc3ccccc32)cc1,0.1%,0.8,6,-0.1%,12,-0.6,-12%
CCc1ccccc1NC(=O)Nc1cccc(F)c1,8.4%,-2.2,-22,0.6%,12,-0.3,11%
O=C(CSc1ncccc1C(=O)O)c1ccc2ccccc2c1,1.5%[38.3 µM],3.3,16,-1.5%,5,3.5,-11%
CN(C)c1ccc(/C=C/C(=O)c2cccnc2)cc1,0.6%,?,-4,.,-25,115*,8%
COc1ccc(C(C)=O)cc1COC(=O)CCNS(=O)(=O)c1ccc(C)c(C)c1,-0.8%,.,8,-5.1%,-9,-0.2,.
Cc1ccc(OCC(=O)NC2CCS(=O)(=O)C2)c([N+](=O)[O-])n1 (centres undefined),-4.5%,.,0,.,-11,-0.1,.
CN1C(=O)/C(=C\c2ccccc2OCc2ccccc2)SC1=S,?,14,-2,-0.8%,-5,1.6,-2%
Cc1ccccc1Nc1nc(N)nc(CSc2nc3ccccc3c(=O)n2C)n1,5.5%,1.1,4,9.1%,35,-0.4,13%
Cc1ccc(NS(=O)(=O)c2cc([N+](=O)[O-])ccc2N/N=C/c2sc(N3CCOCC3)nc2-c2ccccc2)c(C)c1,13%,18,20,1.3%,17,3.6,-4%
COC(=O)Nc1nn(-c2ccc(Cl)cc2)c(=O)c(C#N)c1C,1.1%,-1.8,-3,-6.1%,.,.,11%
COCCn1c(=NC(=O)CCS(=O)(=O)c2ccccc2)sc2cc(F)ccc21,1.4%,.,-9,-6.8%,5,0.5,-2%
COc1cc(CNC2CCCCCCC2)ccc1OCC(N)=O,-1.0%,4.0,-19,-3.6%,3,-0.8,1%
CCCn1c(N)c(N(CCOC)C(=O)c2ccc([N+](=O)[O-])cc2Cl)c(=O)[nH]c1=O,-0.3%,3.7,-6,.,-1,0.8,2%
CCC(C)(C)NC(=O)C(c1ccc(C)o1)N(Cc1cccs1)C(=O)Cn1nnc2ccccc21 (centres undefined),2.0%,-0.6,-7,-2.0%,2,1.3,3%
Nc1nc(-c2ccccc2Cl)cs1,0.1%,.,.,-30%,12,0.1,.
COC(=O)c1ccc(Nc2nc3ccc(C)cc3n3cnnc23)cc1,7.1%,3.5,-13,.,-3,-0.3,2%
C=CCNc1nc(N)c(C(=O)c2ccc3c(c2)OCO3)s1,-1.3%,4.0,1,-20%,-3,0.8,10%
COc1ccc(NC(=O)CCSCCC(=O)Nc2ccc(OC)cc2OC)c(OC)c1,1.4%,1.3,6,0.6%,-6,1.7,17%
COc1ccc(CCNC(=O)c2cn3ccc(C)cc3n2)cc1OC,-0.4%,-3.3,23,-12%,20,1.0,4%
CCOC(=O)c1ccc(NC(=O)C2CCCN(S(=O)(=O)c3ccc(F)cc3)C2)cc1 (centres undefined),0.9%[38.3 µM],4.2,-9,-1.6%,33,3.9,14%
CCCCN(C)CCNC(=O)c1ccc2c(=O)n(CCc3ccccc3)c(=O)[nH]c2c1,2.6%,.,.,-14%,-3,0.0,.
O=C(CC1SCCNC1=O)Nc1ccc(Cl)c(Cl)c1 (centres undefined),-0.5%,-2.5,3,-1.9%,16,1.1,14%
CCOC(=O)c1oc2ccccc2c1COC(=O)CNC(=O)c1ccccc1OC,0.0%,.,6,-3.0%,-7,2.8,.
S=C(NCc1cccnc1)Nc1ccc(Cl)c(Cl)c1,.,1.4,-8,-0.8%,15,0.9,?
C=Cc1ccc(CSc2cc(C)nc3nc(C)nn23)cc1,1.1%,21,?,0.8%,.,.,11%
Cc1ccccc1NC(=O)COC(=O)c1ccc(CSc2ccc(Cl)cc2)cc1,5.1%,8.7,3,0.4%,-10,-0.4,-2%
COc1cccc(NC(=O)CN2CCN(S(=O)(=O)c3ccc(F)cc3)CC2)c1,10.0%[38.3 µM],-1.3,-7,0.4%,22,0.2,?
Cc1ccc(S(=O)(=O)N2CCOCC2)cc1C(=O)OCC(=O)c1ccc[nH]1,1.3%,.,1,-0.8%,0,-0.3,.
O=C(Nc1cc(Cl)cc(Cl)c1)c1cc(S(=O)(=O)N2CCc3ccccc3C2)ccc1F,6.2%,.,.,-5.6%,24,0.2,.
CC1CCCC(C)N1C(=O)c1ccc(S(=O)(=O)N2CCCC2)cc1 (centres undefined),0.1%,.,-1,3.4%,-17,0.7,.
Oc1ccc(Br)cc1-c1cc(-c2ccccc2F)[nH]n1,3.5%,6.9,2,-1.7%,0,0.2,15%
COc1ccccc1CNS(=O)(=O)c1ccc2c(c1)oc(=O)n2C,7.6%,0.4,-11,-0.9%,-1,-0.2,16%
COc1cc(C2C(C(=O)C(C)(C)C)=C(O)C(=O)N2Cc2ccccc2)ccc1O (centres undefined),0.5%,-4.7,-7,0.7%,-8,0.8,23%
Cc1ccc(C(=O)NCC(=O)OC(C)C(=O)NCCC2=CCCCC2)cc1C (centres undefined),-0.4%,7.2,-13,-2.3%,-14,0.0,16%
CCCc1cc(C(=O)Nc2cccnc2Cl)no1,2.4%,3.2,-17,0.7%,-9,1.5,9%
